Screens (PubChem)
PTHR1 ag: PTHR1 (human) receptor agonism. HEK293 GP2 PTHR1 cells, GloSensor cAMP luminescence, 1 h. 410,000 tested, 0.075% active. Potency, µM (doses to about 115 µM), for the others: at the top dose activation, most hits filed as activators. AID 743266; further: nearly all actives have a fitted effect of over 55% in size; some results filed as inactive show a strong effect at the top dose; inactives centre near -15; many of its hits are not listed in these tables
Target sequence (Q03431 whole entry, looked up): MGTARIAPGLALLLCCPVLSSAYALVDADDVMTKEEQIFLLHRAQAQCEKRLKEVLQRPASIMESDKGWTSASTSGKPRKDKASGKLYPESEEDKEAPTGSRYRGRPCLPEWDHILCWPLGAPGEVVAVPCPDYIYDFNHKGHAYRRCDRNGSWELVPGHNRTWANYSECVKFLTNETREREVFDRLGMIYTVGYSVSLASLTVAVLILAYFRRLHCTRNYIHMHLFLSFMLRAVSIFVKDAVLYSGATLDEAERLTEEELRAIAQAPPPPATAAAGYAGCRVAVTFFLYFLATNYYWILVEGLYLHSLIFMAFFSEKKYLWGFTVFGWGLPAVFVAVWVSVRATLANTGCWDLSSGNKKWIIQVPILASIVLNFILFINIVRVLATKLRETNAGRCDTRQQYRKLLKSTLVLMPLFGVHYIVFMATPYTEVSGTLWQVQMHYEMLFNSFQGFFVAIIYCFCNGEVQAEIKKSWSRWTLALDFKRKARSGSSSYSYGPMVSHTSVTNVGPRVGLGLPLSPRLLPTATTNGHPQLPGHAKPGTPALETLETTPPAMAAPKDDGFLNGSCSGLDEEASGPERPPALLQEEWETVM
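HEK-293-derived GP2 cells expressing PTHR1 and a GloSensor cAMP reporter, 3,000/well, plated overnight, given luciferin plus IBMX (each 0.5 mM as added) for 1 h at 37 °C, then compound for 1 h at 37 °C. Luminescence was read after 15 min at room temperature.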
EPAC1 antag: blocks human EPAC1 exchange factor; Potency, µM (series often up to 115 µM), without a hit: at the top dose activity change, negative = inhibition, usual class: inhibitors; O95398; 360,000 tested, 0.14% active; EPAC1 GEF assay, Rap1b-BODIPY-GDP exchange fluorescence;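 further: plate controls were vehicle for no effect and positive control for full effect; nearly all actives have a fitted effect of over 50% in size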
EPAC1 agonist: activates human EPAC1 exchange factor | EPAC1 agonist qHTS, biochemical assay; response scale: 100% = response to 6.5 mM cAMP | Potency, µM (doses to about 154 µM), without a hit: at the top dose activation, most hits filed as activators | O95398 | AID 720707 | 360,000 tested, 0.073% active; further: nearly all actives have a fitted effect of over 60% in size
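EPAC1 100 nM, Rap1B–BODIPY-GDP 250 nM, unlabeled GDP 50 uM; compound titration; 5 min RT; kinetic read ex480/em540 at 5-min intervals ×30 min; data normalized to 6.5 mM cAMP agonist control.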
TDP43 rescue: TDP-43 toxicity inhibition in yeast | Potency, µM (series often up to 46.1 µM), for inactives: at the top dose growth rescue (activation), most hits filed as activators | 410,000 tested, 1.8% active | AID 652104 | TDP-43 expressing yeast growth rescue, BacTiter-Glo, 24 h; further: % of control where 0% means no effect; nearly all actives have a fitted effect of over 50% in size
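In this qHTS, compounds that restore growth of yeast expressing TDP-43 appear as activators. Cells (OD600=0.02, galactose medium, raffinose-pregrown) are incubated with compound 24 hr at 30 deg C and growth is quantified by BacTiter-Glo.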
FUS suppressor: rescues growth of FUS-expressing yeast; S. cerevisiae FUS-expressing, growth rescue, OD600, 24 h; Potency, µM (doses to about 76.6 µM), for inactives: at the highest dose growth rescue (activation), most hits filed as activators; 390,000 tested, 0.24% active; AID 1347120;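 further: plate controls were DMSO vehicle for no effect and reference control for full effect; nearly all actives have a fitted effect of over 55% in size; some results filed as inactive show a strong effect at the top dose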
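Toxicity suppression screen in FUS-yeast. Cells induced with 2% galactose, starting OD 0.005, treated 24hr at 30C with compounds at multiple final concentrations; growth by OD600.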
aSyn rescue: rescues yeast growth from alpha-synuclein toxicity; Yeast expressing alpha-synuclein, growth rescue, BacTiter-Glo, 24 h; Potency, µM (highest dose often 46.1 µM), for the others: top-dose growth rescue (activation), most hits filed as activators; 370,000 tested, 0.14% active; further: % of control where 0% means no effect; nearly all actives have a fitted effect of over 65% in size
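Readout is rescue of growth in alpha-synuclein-expressing yeast, so inhibitors of toxicity appear as activators. Growth after 24 hr at 30 deg C in galactose medium is quantified by luminescence.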
* hit, by the source's call; i = inactive; ? = inconclusive; . = no result given; [ ] = another dose, or the depositor's remark. The call rests on the fitted dose curve; in most records, active means well fitted curve in the direction sought with a large enough effect; inconclusive means small, poorly fitted or top-dose-only effect, or another doubt; inactive means no such curve, though single readings can be large; an effect the other way counts as inactive or inconclusive. Potency means the concentration at half of the fitted maximal effect. The list is partial, so the mix of outcomes need not match the whole.

[1] COc1cc(NC(C)=O)ccc1-c1cc2ccccc2oc1=O
[2] O=S(=O)(CCc1nnc(-c2ccc(Br)cc2)o1)c1ccc(Cl)cc1
[3] O=C(O)c1cnc(-c2ccccc2)nc1Sc1cccc(Cl)c1
[4] CC1=C(C(=O)Nc2ccccc2)C(c2cccnc2)n2nc(-c3cccnc3)nc2N1 (stereo unspecified)
[5] CCCCc1c(-c2ccccc2Br)ncn1CCc1ccccc1OC
[6] Fc1ccccc1Oc1nc(-c2ccncc2)nc2ccccc12
[7] CC(O)c1nc2ccccc2n1CCCc1ccccc1 (stereo unspecified)
[8] CC[C@@H]1C=C(C(=O)O)[C@H](c2ccc(C#N)cc2)N1S(=O)(=O)c1ccc(C)cc1
compound no.,1,2,3,4,5,6,7,8
PTHR1 ag,-65%[inhibitor],-11%[57.5 µM],i,-7%[57.5 µM],-39%[inhibitor],i,-93%[inhibitor],-26%
EPAC1 antag,-4%,0%,-16%,0%,-20%,-4%,-9%,-9%
EPAC1 agonist,4%,1%,0%,0%,-3%,2%,2%,-16%
TDP43 rescue,20%,5%,9%,6%,23%,13%,-14%,4%
FUS suppressor,21%,-9%,0%,6%,12%,6%,-13%,-6%
aSyn rescue,5%,5%,14%,-1%,-9%,3%,-3%,-5%

[9] COc1ccc2c(c1)CCc1c(C(=O)N3CCCC3)noc1-2
[10] O=C(CNc1ccc(C(F)(F)F)cc1[N+](=O)[O-])OCC(=O)c1ccccc1
[11] CC(C)C(N)c1csc(Nc2ccc(C(=O)N(C)Cc3ccccc3)cn2)n1 (stereo unspecified)
[12] Cc1c(NC(=O)N(C)c2ccccc2)c(=O)n(-c2ccccc2)n1C
[13] O=C1CC(c2cccc(Br)c2)C2=C(CCCC2=O)N1 (stereo unspecified)
[14] COc1ccc(S(=O)(=O)Nc2ncccc2C)c2ccccc12
[15] CCc1ccc([C@H]2C(C(=O)O)=C[C@@H](CC3CCCC3)N2S(=O)(=O)c2ccc(C)cc2)cc1
[16] COc1ccc2c(c1)OC(=O)CC2c1ccccc1OC (stereo unspecified)
compound no.,9,10,11,12,13,14,15,16
PTHR1 ag,-34%[inhibitor][57.5 µM],-2%,-3%,-21%,i,-8%,-41%,9%
EPAC1 antag,3%,-10%,7%,-29%,-11%,-5%,?,-19%
EPAC1 agonist,-2%,-1%,-9%,5%,7%,3%,-11%,-17%
TDP43 rescue,-6%,29%,4%,-11%,5%,8%,-28%,12%
FUS suppressor,19%,-24%,8%,-15%,.,10%,?,-11%
aSyn rescue,7%,3%,6%,-13%,-8%,0%,-61%[inhibitor],-3%

[17] COC(=O)Cc1ccc(NC(=O)C(c2ccccc2)c2ccccc2)cc1
[18] COc1ccc(CN(C(=O)c2ccco2)c2ccc(C)c(C)c2)cc1
[19] COC(=O)c1ccc2nc(-c3ccc(C)cc3)c(Cc3ccsc3)n2c1
[20] COc1ccc(Oc2nc(-c3cccnc3)nc3ccccc23)cc1
[21] Cc1cc(C)c(S(=O)(=O)Nc2cccnc2)c(C)c1
[22] COC(=O)c1ccc2nc(-c3ccc(F)cc3)c(Cc3ccccc3OC)n2c1
[23] COC(=O)c1ccc2nc(-c3ccc(F)cc3)c(Cc3ccsc3)n2c1
[24] FC(F)(F)c1ccc(CSc2nccn2-c2ccccc2)cc1
compound no.,17,18,19,20,21,22,23,24
PTHR1 ag,i,-3%,-91%[inhibitor],i,-1%[57.5 µM],-57%[inhibitor],-89%[inhibitor],-12%
EPAC1 antag,-22%,-28%,-7%,2%,-2%,-18%,-14%,-26%
EPAC1 agonist,7%,15%,-7%,5%,8%,4%,-4%,2%
TDP43 rescue,-10%,6%,-13%,2%,3%,22µM*,-8%,10%
FUS suppressor,.,20%,23%,14%,6%,6%,27%,-10%
aSyn rescue,2%,10%,-7%,2%,3%,-11%,-8%,7%

Grouped by structure, those above containing a CF3 group
[10] O=C(CNc1ccc(C(F)(F)F)cc1[N+](=O)[O-])OCC(=O)c1ccccc1
[24] FC(F)(F)c1ccc(CSc2nccn2-c2ccccc2)cc1
compound no.,10,24
PTHR1 ag,-2%,-12%
EPAC1 antag,-10%,-26%
EPAC1 agonist,-1%,2%
TDP43 rescue,29%,10%
FUS suppressor,-24%,-10%
aSyn rescue,3%,7%

Limited to TDP43 rescue, PTHR1 ag and aSyn rescue, for some of the entries so far:
| cpd | compound | TDP43 rescue | PTHR1 ag | aSyn rescue |
| --- | --- | --- | --- | --- |
| 19 | COC(=O)c1ccc2nc(-c3ccc(C)cc3)c(Cc3ccsc3)n2c1 | -13% | -91%[inhibitor] | -7% |
| 22 | COC(=O)c1ccc2nc(-c3ccc(F)cc3)c(Cc3ccccc3OC)n2c1 | 22µM* | -57%[inhibitor] | -11% |
| 24 | FC(F)(F)c1ccc(CSc2nccn2-c2ccccc2)cc1 | 10% | -12% | 7% |

Other compounds follow.
[25] COC(=O)c1ccc2nc(-c3ccc(F)cc3)c(CC3CCCCC3)n2c1
[26] CCCCc1c(-c2ccccc2OC)ncn1Cc1ccc(Cl)cc1
[27] COc1ccc(Cl)cc1NC(=O)COC(=O)c1cc(C)oc1C
[28] COc1cc(N)ccc1-c1cc2ccccc2oc1=O
[29] COc1ccc(C2CC(=O)Oc3cc(C)c(Cl)cc32)cc1 (stereo unspecified)
[30] COc1ccc(Cl)cc1NC(=O)CN(C)Cc1cccs1
[31] CCC(CC)C(=O)Nc1nc(-c2ccc3c(c2)CCN3C(=O)C2CC2)c(C)s1
[32] CC(C)(C)n1nnnc1C(c1cc2ccccc2o1)N1CCN(C(=O)OCc2ccccc2)CC1 (stereo unspecified)
compound no.,25,26,27,28,29,30,31,32
PTHR1 ag,i,-21%,i,-19%,-41%[inhibitor],-17%,-16%[57.5 µM],-16%
EPAC1 antag,-13%,-29%,1%,2%,-12%,23%,-24%,0%
EPAC1 agonist,-7%,-24%,-3%,15%,-8%,16%,4%,4%
TDP43 rescue,11%,25%,?,-20%,?,9%,3%,17%
FUS suppressor,41%,14%,-11%,-4%,0%,2%,20%,?
aSyn rescue,-7%,-7%,-1%,-10%,-1%,8%,-4%,0%

[33] C=CCN1CCOc2ccc(C)cc2S1(=O)=O
[34] COC(=O)c1ccc2nc(-c3ccc(F)cc3)c(Cc3cccc(F)c3)n2c1
[35] O=C(CCN1CCOCC1)NCC1COc2ccccc2O1 (stereo unspecified)
[36] COc1cccc(Cn2cnc(-c3ccccc3OC)c2-c2cccnc2)c1
[37] CC1CC1C(=O)OCC(=O)NC(=O)NCc1ccco1 (stereo unspecified)
[38] CCCC[C@@H]1C=C(C(=O)O)[C@H](c2ccc(Cl)cc2)N1S(=O)(=O)c1ccc(C)cc1
[39] CCN(CC)C(=O)CNc1ccc(C(F)(F)F)cc1[N+](=O)[O-]
[40] COC(=O)c1ccc2nc(-c3ccco3)c(Cc3cccc(F)c3)n2c1
compound no.,33,34,35,36,37,38,39,40
PTHR1 ag,i,-50%[inhibitor],i,24%,-18%[57.5 µM],-19%,i,i
EPAC1 antag,7%,10%,-9%,-1%,6%,-9%,-10%,?
EPAC1 agonist,4%,5%,0%,-6%,-1%,-18%,1%,-19%
TDP43 rescue,26%,24%,14%,-4%,3%,6%,?,14µM*
FUS suppressor,-28%,-4%,-13%,1%,-1%,20%,.,33%
aSyn rescue,-1%,0%,5%,0%,0%,-32%[inhibitor],1%,?

Exported with two lines to a compound: part of the list above
Every second line gives: PTHR1 ag | EPAC1 antag | EPAC1 agonist | TDP43 rescue | FUS suppressor | aSyn rescue
(4) CC1=C(C(=O)Nc2ccccc2)C(c2cccnc2)n2nc(-c3cccnc3)nc2N1 (stereo unspecified)
    -7%[57.5 µM] | 0% | 0% | 6% | 6% | -1%
(5) CCCCc1c(-c2ccccc2Br)ncn1CCc1ccccc1OC
    -39%[inhibitor] | -20% | -3% | 23% | 12% | -9%
(6) Fc1ccccc1Oc1nc(-c2ccncc2)nc2ccccc12
    i | -4% | 2% | 13% | 6% | 3%

The results go on:
[41] COC(=O)C(C)NC(=O)C(C)NC(=O)OCc1ccccc1 (stereo unspecified)
[42] Cc1nc2sc(C(N)=O)c(N)c2c(C)c1CC(=O)c1ccccc1
[43] O=C(c1cc(COc2ccc(F)c(F)c2)on1)N1CCOCC1
[44] CC(C)(C)n1nnnc1C(c1cc2ccccc2o1)N1CCCCC1 (stereo unspecified)
[45] O=C(O)c1cnc(-c2ccccc2)nc1Sc1ccccc1
[46] COc1ccc2c(c1)CCc1c(C(=O)N3CCCc4ccccc43)noc1-2
[47] O=C(O)c1cnc(-c2ccccc2)nc1Oc1ccccc1
[48] CCN(CC)S(=O)(=O)c1cc(C(=O)n2cccn2)c(Cl)cc1Cl
compound no.,41,42,43,44,45,46,47,48
PTHR1 ag,i,-45%,-19%,0%,-2%[57.5 µM],i,-24%,-4%[57.5 µM]
EPAC1 antag,-2%,14%,2%,-8%,-7%,-11%,8%,13%
EPAC1 agonist,5%,-5%,5%,-4%,3%,26%,6%,-5%
TDP43 rescue,-21%,5%,22%,16%,2%,21%,-11%,-6%
FUS suppressor,8%,5%,-9%,-6%,17%,44%,9%,0%
aSyn rescue,-1%,9%,-1%,3%,7%,-14%,2%,1%

Values in list order from the entries so far:
Entries 41–48 in EPAC1 antag: -2%, 14%, 2%, -8%, -7%, -11%, 8%, 13%
Entries 41–48 in aSyn rescue: -1%, 9%, -1%, 3%, 7%, -14%, 2%, 1%
Entries 41–48 in EPAC1 agonist: 5%, -5%, 5%, -4%, 3%, 26%, 6%, -5%

Following part
[49] CCCCNC(=O)C1(C)CCCCN1Cc1ccc(OCc2ccccc2)cc1 (stereo unspecified)
[50] CCOC(=O)c1ccc(N/C=C/C(=O)c2ccc(OC)cc2)cc1
[51] CCOC(=O)C1=C[C@@H](CC)N(S(=O)(=O)c2ccc(C)cc2)[C@H]1c1ccccc1
[52] O=c1oc2ccccc2cc1-c1csc(Cc2nc(-c3ccc(Cl)cc3)cs2)n1
compound no.,49,50,51,52
PTHR1 ag,-60%[inhibitor],i,-40%[inhibitor],-56%[inhibitor]
EPAC1 antag,-19%,7%,1%,-2%
EPAC1 agonist,-15%,-1%,8%,3%
TDP43 rescue,2%,-11%,-5%,-4%
FUS suppressor,-9%,-11%,24%,7%
aSyn rescue,-3%,9%,-7%,-5%
